Screens from PubChem.
Six1-Eya2 blk – qHTS Assay for Inhibitors of the Six1/Eya2 Interaction | Homeobox protein SIX1 (Homo sapiens) + Protein phosphatase EYA2 (Homo sapiens), … | AlphaScreen GST-Six1/His-Eya2 binding, biochemical; hits give low values; control for the full effect not named in the record | activity change, % (concentration not given with the values) | actives 0.56% (n = 360,000) | AID 651725, 2012; in the data active = activity change below about -65%; inconclusive = about -30% to -65%; inactive = above about -30%; further: on the % scale 0 is the no-effect control and ±100 the full control effect
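GST-Six1 + His-Eya2 (5X stock: 250/500 nM); Tris pH 8.0, 300 mM NaCl, 0.05% BSA, 0.02% Tween 20; GSH donor/Ni acceptor beads; 1 h 37 °C dark; AlphaScreen readout.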
TRPV1 PAM – HTS Assay for Compounds that Act as Potentiators of the Vanilloid Receptor 1 | Transient receptor potential cation channel subfamily V member 1 (Homo sapiens), Q8NER1 | AID 540277, 2011 | potentiation, % at 8.33 µM | TRPV1-expressing cells, Fluo-8 calcium influx, capsaicin EC20 potentiation; host cell line not named in the record; control for the full effect not named in the record | actives 0.02% (n = 320,000); active means potentiation above 80%; inconclusive means 30% to 80%; inactive means below 30%; further: 0% is about no effect
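TRPV1-expressing cells were cultured overnight at 35.5C and loaded with Fluo-8 calcium dye for 40 to 90 min at room temperature. After a 10 s baseline, compound was added and calcium influx was read kinetically for 3 min (ex 480/em 520 nm).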
CtBP-E1A inh – qHTS Assay for Inhibitors of the CtBP/E1A Interaction. CtBP / adenovirus E1A interaction (AlphaScreen). AlphaScreen GST-E1A/His-CtBP binding, 1536-well; hits give low values; control for the full effect not named in the record. activity change, % (concentration not given with the values). actives 0.49% (n = 340,000). AID 651724, 2012; in the data active means activity change below about -65%; inconclusive means about -30% to -65%; inactive means above about -30%; further: on the % scale 0 is the no-effect control and ±100 the full control effect
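In 5 uL wells, 23 nL compound meets equimolar GST-E1A and His-CtBP (5X stock 125 nM each) for 2 h, 37 °C. Beads (5X, 50 ug/mL) then 1 h, 37 °C, dark.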
D2 agonist – Beta-Arrestin HTS for Positive Allosteric Modulators of the Human D2 Dopamine Receptor: Agonists; actives 0.084% (n = 360,000); activation, % (concentration not given with the values); DiscoveRx PathHunter D2 beta-arrestin, luminescence, 90 min; 100% = 57 uM dopamine signal; in the data active = activation above about 40%; inconclusive = about 15% to 40%; inactive = below about 15%; further: compound concentration not given in the record; the text of the record calls up to 30% inactive
Target sequence (P14416 whole entry, looked up): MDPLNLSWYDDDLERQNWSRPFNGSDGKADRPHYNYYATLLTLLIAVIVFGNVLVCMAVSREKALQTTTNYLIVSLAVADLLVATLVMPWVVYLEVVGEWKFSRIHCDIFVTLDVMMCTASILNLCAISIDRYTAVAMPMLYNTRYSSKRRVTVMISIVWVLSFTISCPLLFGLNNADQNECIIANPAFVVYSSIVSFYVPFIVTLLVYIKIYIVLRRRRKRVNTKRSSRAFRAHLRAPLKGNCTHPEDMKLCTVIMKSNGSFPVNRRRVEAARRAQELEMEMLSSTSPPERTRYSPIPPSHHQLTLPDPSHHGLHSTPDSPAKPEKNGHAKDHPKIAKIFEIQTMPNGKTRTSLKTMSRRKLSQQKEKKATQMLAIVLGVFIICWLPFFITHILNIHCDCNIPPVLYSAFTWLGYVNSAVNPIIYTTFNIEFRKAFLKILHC
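Agonist mode: compounds alone added to overnight-plated D2 PathHunter cells for 90 min at 37 C, with 57 uM final dopamine (EC100) defining full response. Beta-arrestin recruitment detected by chemiluminescent reagent, read after 1 h at ambient temperature.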
PINK1 expr mod – A Quantitative High throughput Screen to Identify Chemical Modulators of PINK1 Expression. Potency, µM (titrated, usually from 76.6 µM), for the others: top-dose activation (PINK1 increase), hits mostly activators. PINK1 immunofluorescence, high-content cytometry, 24 h. actives 0.2% (n = 410,000). AID 624263, 2012; active = well fitted activation curve with a large enough effect; inconclusive = small, poorly fitted or top-dose-only effect; inactive = flat fitted curve, though single readings scatter; cell line not stated here;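 further: potency means the concentration at half of the fitted maximal effect; % of control where 0% means no effect; nearly all actives have a fitted effect of over 65% in size; a mitochondrial uncoupler was the plate control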
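Stable cell line, 250 cells/well, 12 h attachment; compounds pinned at 5 concentrations, 24 h; CCCP control. Fixed with nuclear dye, primary antibodies 12 h at 10 degrees C, secondary plus cell stain; laser-scanning cytometer read.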
Sfp PPTase inh – qHTS Assay for Inhibitors of Bacillus subtilis Sfp phosphopantetheinyl transferase (PPTase); Biochemical Sfp PPTase activity, qHTS; Potency, µM, without a hit: max response, negative = inhibition, most hits filed as inhibitors; AID 1490, 2009; actives 3.5% (n = 310,000); active means well fitted inhibition curve with a large enough effect; inconclusive means small, poorly fitted or top-dose-only effect, or another doubt; inactive means no such curve, though single readings can be large or run the other way;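 further: the enzyme is Sfp with the accession as filed and its product quenches rhodamine fluorescence; potency means the concentration at half of the fitted maximal effect; 0% = enzyme reaction without inhibitor and -100% = no enzyme wells; top concentration of the series not given in the record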
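With Hepes-Na pH 7.6 buffer containing 10 mM MgCl2, Sfp (15 nM) modified BHQ-2-YbbR (12.5 uM) using rhodamine-CoA (5 uM). Two reads 30 minutes apart at 525/598 nm yielded each well's rate.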
D2 potentiator – Beta-Arrestin HTS for Positive Allosteric Modulators of the Human D2 Dopamine Receptor: Potentiators. potentiation, % (no concentration beside the values). AID 624464, 2012. D(2) dopamine receptor (Homo sapiens), P14416. DiscoveRx D2 beta-arrestin cells, luminescence, 90 min; 100% = 57 uM dopamine signal. actives 0.23% (n = 360,000); active = potentiation of 50% or more; inconclusive = 30% to 50%; inactive = 30% or less;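 further: compound concentration not given in the record; tested on top of an EC20 dose of dopamine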
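PathHunter beta-arrestin assay in DiscoveRx D2 cells. Compounds were added with an EC20 of dopamine (50 nM final) for 90 min at 37 deg C. Luminescence was read 1 h after detection reagent, with 57 uM dopamine as the EC100 control.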
An asterisk follows results filed as active; ? = inconclusive; nt = not tested or not shown; & = joins results of further samples; [ ] = another dose, or the depositor's remark. This is a random part of the collection; about 3.7% have a hit in one of these screens.

SMILES | Six1-Eya2 blk | TRPV1 PAM | CtBP-E1A inh | D2 agonist | PINK1 expr mod | Sfp PPTase inh | D2 potentiator
Cc1cc(N2C(=O)C(O)=C(C(=O)c3cc4ccccc4o3)C2c2cccc(Cl)c2)no1 (centres undefined) | 11 | 7 | -5 | -4.2 | 25% | 0% | -6
CC(=O)N1C(=O)C2(Nc3ccccc3N2)c2ccccc21 | 9 | 17 | -1 | -1.2 | 0.0% | -1% | -6
CCOc1ccc(NC(=O)N2CCC(NC(=O)C(Cc3ccccc3OC)NC(C)=O)CC2)cc1 (centres undefined) | 7 | 4 | 5 | -1.8 | 0.1% | -2% | 0
O=C(N/N=C1\CCCc2ccccc21)C(O)c1ccccc1 (centres undefined) | -1 | 20 | 6 | 3.0 | -1.5%[38.3 µM] | 0% | -2
COc1ccc(Cc2nnc3n2N=C(c2cc4ccccc4o2)CS3)cc1OC | -17 | nt | -12 | -1.7 | 1.5% | nt | -6
Cc1cnc(C(=O)OCC(=O)NC23CC4CC(CC(C4)C2)C3)cn1 | 0 | -17 | 1 | -3.5 | 5.0%[38.3 µM] | -3% | -4
CCN(Cc1ccccc1)C(=O)CCS(=O)(=O)c1ccc2c(c1)oc(=O)n2C | 21 | -8 | 26 | -13 | -0.7%&-0.4% | 7% | -5
COc1cccc(-c2cc(C(=O)N3CCN(Cc4ccc5c(c4)OCO5)CC3)on2)c1 | -15 | -3 | -5 | -5.2 | 0.4% | 0% | -4
Cc1nn(-c2ccccc2)c2sc(C(=O)OC3CCOC3=O)cc12 (centres undefined) | -5 | -3 | 3 | -1.0 | 4.4% | -2% | 16
COc1cccc(N2CCN(C(=O)CN(c3ccc(C)cc3)S(=O)(=O)c3c(C)n[nH]c3C)CC2)c1 | -8 | nt | 2 | -0.6 | 2.9% | -2% | 1
Cc1ccc(/C=N\n2c(-c3ccccc3)n[nH]c2=S)s1 | -11 | -1 | -3 | -5.0 | -1.5% | -3% | 1
Cc1cccc(-c2noc(CNC(=O)c3ccoc3C)n2)c1 | -18 | 0 | -3 | -2.7 | -0.1% | 32µM* | -6
CN(Cc1nc(-c2cnccn2)no1)Cc1n[nH]c2c1CCCCC2 | 2 | 19 | 3 | -2.3 | 2.8% | 12% | -8
CC(C)NC(=O)N(C)C[C@H]1Oc2ccc(NC(=O)Nc3ccc4c(c3)OCO4)cc2C(=O)N([C@H](C)CO)C[C@@H]1C | 5 | nt | -2 | -1.9 | -0.6% | nt | -10
CN(Cc1cccc(-n2cccn2)c1)Cc1cn(C)nc1-c1ccccc1F | 8 | 16 | -4 | -5.6 | 4.2% | 22% | -8
c1cc2c3c(cccc3c1)NC1(CCCCCC1)N2 | 3 | 0 | -11 | 0.4 | -1.1% | 9% | -2
Cc1cc[n+]2n1CC(O)C2 (centres undefined) | 4 | 9 | 2 | -0.8 | 0.6% | 5% | 2
CC(=O)OC(COc1ccc(F)cc1)Cn1cnc2ccccc21 (centres undefined) | 9 | 6 | -11 | -2.6 | 0.2% | -3% | -21
O=C(Nc1ncccc1O)c1ccc(Cl)c(S(=O)(=O)N2CCCCCC2)c1 | -7 | -18 | -1 | 2.6 | 2.4% | nt | 5
CCn1nc(CC(=O)Nc2ccc(-n3cnnn3)c(C)c2)c2ccccc2c1=O | 0 | -11 | 0 | -4.3 | -1.4% | 20% | -7
Cc1nc(CN2CCN(Cc3nc(C(c4ccccc4)c4ccccc4)no3)CC2)cs1 | -2 | 4 | -5 | -2.9 | 0.3% | 14% | -1
O=[N+]([O-])c1ccc(CN2CCC(Cc3ccccc3)CC2)cc1 | -6 | -1 | nt | -1.7 | 11% | -20% | -66
CCCOc1ccc2c(c1)C(=NN=C(N)N)c1cc(OCCC)ccc1-2 | -21 | 8 | ? | -0.8 | -3.0% | ? | -8
Cc1cc(C)c2nc(N3CCOCC3)c(C#N)cc2c1 | 35 | -9 | 59 | -2.8 | 1.0% | 4% | -3
CN(C(=O)CCNC(=O)N1CC(=O)Nc2ccccc21)C1CCCCC1 | 0 | -3 | -7 | -0.8 | -0.2% | -2% | -9
O=S(=O)(NCCOc1ccccc1F)c1ccc(Cl)cc1F | 8 | nt | -1 | -2.2 | -0.1% | nt | -17
N/C(=N\OC(=O)CCCOc1ccccc1)c1ccc(Br)cc1 | 75 | 13 | 85 | 0.7 | 0.4% | -8% | -22
C=CCN(c1ccccc1)S(=O)(=O)c1ccc2c(c1)N(C(C)=O)CCO2 | -2 | -2 | 3 | -7.8 | 1.0% | 15% | -5
COc1ccccc1NS(=O)(=O)c1cc(NC(=O)CCC(=O)c2cccs2)ccc1Cl | ? | 0 | ? | 1.7 | -1.5% | 3% | -4
CC(=O)Nc1nc(C)c(C(C)=O)s1 | 0 | 4 | 1 | -3.0 | -0.3% | -14% | -14

An excerpt of these results, as a markdown table:
| SMILES | Six1-Eya2 blk | TRPV1 PAM | CtBP-E1A inh | D2 agonist | PINK1 expr mod | Sfp PPTase inh | D2 potentiator |
| --- | --- | --- | --- | --- | --- | --- | --- |
| CCN(Cc1ccccc1)C(=O)CCS(=O)(=O)c1ccc2c(c1)oc(=O)n2C | 21 | -8 | 26 | -13 | -0.7%&-0.4% | 7% | -5 |
| COc1cccc(-c2cc(C(=O)N3CCN(Cc4ccc5c(c4)OCO5)CC3)on2)c1 | -15 | -3 | -5 | -5.2 | 0.4% | 0% | -4 |
| Cc1nn(-c2ccccc2)c2sc(C(=O)OC3CCOC3=O)cc12 (centres undefined) | -5 | -3 | 3 | -1.0 | 4.4% | -2% | 16 |

Further entries follow.
SMILES | Six1-Eya2 blk | TRPV1 PAM | CtBP-E1A inh | D2 agonist | PINK1 expr mod | Sfp PPTase inh | D2 potentiator
CCC1(c2ccccc2)NC(=O)N(CC(=O)Nc2ccccc2N2CCCC2)C1=O (centres undefined) | 0 | -14 | -68* | -3.0 | 2.4% | nt | -3
O=C(C[C@H]1C[C@H](C(=O)N2CCCCC2)[C@@]2(CCc3ccccc3)c3[nH]c4ccc(Cl)cc4c3CCN2C1=O)NCCc1ccccn1 | -2 | nt | 3 | -3.1 | 0.4% | nt | 1
O=C(Nc1ccc(Cl)cc1)c1cc(S(=O)(=O)N2CCCCC2)ccc1N1CCOCC1 | -7 | nt | -3 | 1.8 | 2.5% | nt | -3
CCOCCCNC(=O)c1cn(CC)c2ccc(S(=O)(=O)N3CCCC3)cc2c1=O | 0 | 28 | nt | -3.1 | 1.0% | 18% | -8
CN(C)S(=O)(=O)n1cc(/C=C(\NC(=O)c2ccccc2Cl)C(=O)NCCN2CCOCC2)c2ccccc21 | 3 | -20 | 11 | -1.6 | 1.5% | 18% | -7
NS(=O)(=O)c1cccc(NC(=O)c2cc3ccccc3o2)c1 | -1 | -7 | -5 | -1.6 | 2.1% | 1% | -9
COc1ccc(S(=O)Cc2ccc(C(=O)NC3CC3)o2)cc1 (centres undefined) | 5 | -9 | nt | 4.3 | 1.1% | 2% | -1
COc1ccc(N2CCN(C(CNC(=O)c3ccco3)c3cccnc3)CC2)cc1 (centres undefined) | -8 | 0 | 1 | -3.8 | 2.4% | 17% | -18
Cc1ccc(C)c(OCc2nc3ccccc3[nH]2)c1 | 1 | -33 | 1 | -2.9 | 6.3% | 6% | -10
COc1ccc(-n2c(Cc3cccn3C)nnc2SCC(=O)Nc2ccc(F)cc2F)cc1 | -14 | 8 | -7 | -3.4 | -2.5% | -5% | -2
CCc1nc2ccc(C(=O)N3CCN(c4ccccc4)CC3)cn2c1N(C)CCCc1ccccc1 | -14 | nt | -17 | -5.0 | 1.2% | nt | -6
Cc1nn(C(C)c2n[nH]c(=S)n2-c2cccc(Cl)c2)c(C)c1[N+](=O)[O-] (centres undefined) | 3 | -8 | 8 | -1.1 | -4.1%[38.3 µM] | -5% | -1
COc1ccc2cc3cc(C(=O)NCCN4CCN(c5ccccc5F)CC4)oc3nc2c1 | -26 | 0 | -22 | 5.0 | 0.0% | 16% | -38
COc1ccc(CCNS(=O)(=O)c2ccc3c(c2)CCCC3)cc1OC | -4 | nt | nt | 7.4 | 1.4% | nt | 6
C=CCCC(=O)Nc1nc(C)c(-c2csc(Nc3cc(Cl)ccc3OC)n2)s1 | -7 | -3 | -3 | -3.4 | 1.1% | -29% | -8
CCOc1ncccc1C(=O)Nc1cc(S(=O)(=O)N2CCCCC2)ccc1Cl | -7 | -2 | 16 | -3.1 | 15% | nt | -27
CCOC(=O)N1CCN(C(=O)c2ccc(N(C)S(=O)(=O)c3ccc(C)cc3)cc2)CC1 | 0 | 11 | 2 | -0.2 | 2.2% | 13% | -6
O=C(COC(=O)/C=C/c1ccccc1)Nc1cccnc1Cl | 6 | 2 | -6 | -1.6 | -1.7% | nt | 2
COC(=O)C1C(O)=C(C(C)=N)C(=O)CC1(C)C (centres undefined) | 2 | 0 | -4 | -2.0 | -0.7% | 29% | 0
O=C(Nc1nc(-c2ccc(S(=O)(=O)N3CCOCC3)cc2)cs1)c1ccccc1 | ? | 3 | -17&0 | 1.3&6.4 | 6.3%&7.7% | -8% | ?
O=C(Cc1ccc(Cl)cc1)N1CCN(C(=O)c2ccco2)CC1 | -1 | 14 | 2 | -1.5 | -0.5% | 23% | 3
COc1ccc(C(=O)Nc2c(F)c(F)c(F)c(F)c2F)cc1OC | 1 | nt | 3 | nt | 0.4% | nt | nt
CCCCN(C)Cc1c(C)[nH]c2c(Cl)cccc2c1=O | 2 | 2 | 7 | -1.7 | nt | 15% | -9
COC(OC)c1nc(SCC(=O)Nc2cccc(Cl)c2)ncc1C(=O)O | 2 | ? | nt | -5.2 | 0.1% | -2% | -13
O=C1COc2ccc(S(=O)(=O)N3CCCCCC3)cc2N1 | -2 | -17 | nt | 0.6 | 1.8% | 9% | -1
O=C(OCCOc1cccc(Cl)c1)c1cc(S(=O)(=O)N2CCCCC2)ccc1N1CCOCC1 | -6 | 15 | -20 | 0.3 | 1.4% | nt | 11
CCN(CC)c1ccc(C(=O)NNC(=O)c2cccn2C)cc1 | -5 | -9 | -19 | -2.0 | 1.8% | nt | -3
